RE007 growth inh: less growth of the S. pombe RE007 Vpr strain. Potency, µM (highest dose often 92.2 µM), for inactives: at the highest dose activity change, negative = less growth. AID 651644. S. pombe RE007 Vpr strain, BacTiter-Glo ATP luminescence, 24 h; control for the full effect not named in the record. hit rate 0.21% among 360,000; active = well fitted falling curve with a large enough effect; inconclusive = small, poorly fitted or top-dose-only effect; inactive = no such curve, though single readings can be large or run the other way;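 note: % is set by controls: 0 for no effect and ±100 for the full control effect; nearly all actives have a fitted effect of over 50% in size; the assay follows cell death caused by Vpr and the record does not say whether a fall means rescue or toxicity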
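Fission yeast RE007 carrying one integrated HIV-1 vpr copy, seeded at OD 0.01 in PMG+AL medium with 23 nL pinned compound. Grown 24 h at 30 degrees; viability read by BacTiter-Glo luminescence after 5 min.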
Cruzain noTriton: inhibitors of Trypanosoma cruzi cruzain without detergent; purified cruzain, Z-FR-AMC fluorescence, no detergent; Potency, µM, for the others: max response, negative = inhibition, most hits filed as inhibitors; AID 1476; hit rate 2.3% among 200,000; active = well fitted curve in the direction sought with a large enough effect; inconclusive = small, poorly fitted or top-dose-only effect, or another doubt; inactive = no such curve, though single readings can be large; an effect the other way counts as inactive or inconclusive;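 note: plate controls were enzyme without inhibitor for no effect and buffer without enzyme for full effect; nearly all actives have a fitted effect of over 40% in size; top concentration of the series not given in the record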
Target sequence (P25779 123-467 limits assumed): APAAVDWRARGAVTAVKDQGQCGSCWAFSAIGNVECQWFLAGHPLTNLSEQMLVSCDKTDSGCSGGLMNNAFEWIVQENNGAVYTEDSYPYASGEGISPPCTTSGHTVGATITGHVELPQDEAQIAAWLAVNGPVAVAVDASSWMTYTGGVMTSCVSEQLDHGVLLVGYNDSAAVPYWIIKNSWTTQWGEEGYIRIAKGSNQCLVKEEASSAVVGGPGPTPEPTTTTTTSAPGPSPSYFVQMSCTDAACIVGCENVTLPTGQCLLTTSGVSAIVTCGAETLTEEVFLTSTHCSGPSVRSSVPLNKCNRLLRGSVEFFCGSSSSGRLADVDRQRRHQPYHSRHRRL
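Detergent-free condition (0.00005% Triton X-100) in acetate buffer pH 5.5 with DTT. 1.5 nM enzyme and compound were pre-mixed 15 min, then 2 uM Z-FR-AMC substrate added; reaction progress from fluorescence change between first and third reads (60 s).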
Cruzain inh Det: inhibitors of Trypanosoma cruzi cruzain with detergent | Potency, µM, inactives show max response, negative = inhibition, hits mostly inhibitors | AID 1478 | hit rate 0.43% among 200,000 | purified cruzain, Z-FR-AMC fluorescence, 0.01% Triton | P25779; active = well fitted curve in the direction sought with a large enough effect; inconclusive = small, poorly fitted or top-dose-only effect, or another doubt; inactive = no such curve, though single readings can be large; an effect the other way counts as inactive or inconclusive;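 note: plate controls were neutral wells for no effect and buffer without enzyme for full effect; nearly all actives have a fitted effect of over 40% in size; top concentration of the series not given in the record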
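Steps: dispense cruzain (1.5 nM final) in acetate buffer pH 5.5 with DTT and 0.01% Triton X-100; pin-transfer compounds; incubate 15 min RT; add Z-FR-AMC (2 uM final); read fluorescence every 30 s, using the 60 s intensity change.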
NS1 inh: blocks influenza NS1 protein function. hit rate 0.4% among 270,000. Potency, µM (highest dose often 46.1 µM), for the others: at the highest dose activity, positive = more growth. S. cerevisiae slowed by influenza A NS1, growth recovery by OD600; note: actives are rising curves; nearly all actives have a fitted effect of over 50% in size
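Recovery from NS1-induced slow growth read by OD600 in budding yeast switched to galactose assay medium (pH 6.0, -URA) at 1:100 dilution. Compound 23 nl per well; the matching strain lacking NS1 serves as control.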
LASV entry inh: inhibitors of Lassa virus binding or cell entry. Lassa virus pseudotype entry inhibition, cell reporter; control for the full effect not named in the record. Potency, µM (top dose mostly 37.9 µM), without a hit: at the highest dose activity change, negative = inhibition, actives largely listed as inhibitors. hit rate 1.2% among 300,000. AID 540256; active means well fitted inhibition curve with a large enough effect; inconclusive means small, poorly fitted or top-dose-only effect, or effect the other way; inactive means flat fitted curve, though single readings scatter; tested in HEK293 cells; note: % is set by controls: 0 for no effect and ±100 for the full control effect; nearly all actives have a fitted effect of over 50% in size; luciferase read-out
SARS PLP yeast: blocks SARS-CoV papain-like protease in a yeast assay | S. cerevisiae expressing SARS-CoV PLpro, growth rescue; control for the full effect not named in the record | hit rate 0.19% among 330,000 | Potency, µM (series often up to 32.9 µM), inactives show at the top dose activity, positive = growth rescue; note: 0% is about no effect; nearly all actives have a fitted effect of over 55% in size; growth read by luminescence after 48 h
StopGo reporter: lowers the luciferase signal of an FMDV 2A StopGo reporter; hit rate 1.2% among 410,000; human cells with a luciferase reporter of 2A StopGo recoding; control for the full effect not named in the record; AID 1159524; Potency, µM (top dose mostly 57.9 µM), without a hit: at the top dose signal change, negative = less light; active = well fitted falling curve with a large enough effect; inconclusive = small, poorly fitted or top-dose-only effect; inactive = no such curve, though single readings can be large or run the other way; tested in HEK293T cells; note: % is set by controls: 0 for no effect and ±100 for the full control effect; nearly all actives have a fitted effect of over 45% in size; luciferase light after 4 h
Marburg entry inh: blocks Marburg virus binding to or entry into cells | Marburg virus pseudotyped entry inhibition, cell reporter; control for the full effect not named in the record; about a third of the inactives were read at about 46 µM | hit rate 1.8% among 300,000 | AID 540276 | Potency, µM (titrated, usually from 37.8 µM), inactives show at the highest dose activity change, negative = inhibition, actives largely listed as inhibitors; active = well fitted inhibition curve with a large enough effect; inconclusive = small, poorly fitted or top-dose-only effect, or effect the other way; inactive = flat fitted curve, though single readings scatter; tested in HEK293 cells; about a fifth of its hits are not listed in these tables; note: % is set by controls: 0 for no effect and ±100 for the full control effect; luciferase read-out
An asterisk follows results filed as active; ? = inconclusive; / = no result given; & = joins results of further samples; [ ] = remark or other dose. Unless noted, calls come from the whole dose curve; as a rule, active means well fitted rising curve with a large enough effect; inconclusive means small, poorly fitted or top-dose-only effect; inactive means no such curve, though single readings can be large or run the other way. Potency is the fitted concentration of half-maximal effect.

mol	RE007 growth inh	Cruzain noTriton	Cruzain inh Det	NS1 inh	LASV entry inh	SARS PLP yeast	StopGo reporter	Marburg entry inh
Nc1nc(NCCCN2CCOCC2)nc(Nc2ccccc2F)c1[N+](=O)[O-]	-7.1%	/	/	-5.1%	-2.5%[46.1 µM]	0.4%	-27.9%	?
O=C1c2ccccc2C(=O)N1Cc1nc(-c2ccccc2)no1	-8.5%	0.1%	-4.6%	-7.7%	8.3%	-0.4%	38.6%[activator]	17.1%
CC(C)(C)c1cc[n+](-c2[nH]c(=O)sc2/C=N/N=C(\[O-])c2cccnc2)cc1	-7.3%	/	/	5.6%	0.1%[46.1 µM]	0.8%	-2.9%	15.0%[46.1 µM]
Cc1ccc(Cn2c(C)c(CNCC(C)c3ccccc3)c(C(=O)O)c2C)cc1 (centres undefined)	/	-0.4%	-1.5%	/	18.9%[46.1 µM]	/	-18.1%	9.2%[46.1 µM]
CC(C)C(c1nnnn1Cc1ccc(F)cc1)N1CCN(C2CCCCC2)CC1 (centres undefined)	-1.8%	0.3%	0.2%	-6.5%	-4.8%	-2.5%	-15.7%	12.4%
Cc1ccc(C(=S)N2CCN(Cc3ccccc3)CC2)cc1	-22.2%	/	/	-3.9%	?	1.6%	-27.0%	4.8%[46.1 µM]
Cc1cc(C)n(CC(O)COc2ccccc2C(=O)Nc2ccccc2)n1 (centres undefined)	-6.7%	10.7%	-0.1%	-4.4%	0.4%	9.0%	-25.0%	-1.0%
Cc1cc(C)n(-c2ccc(C(=O)O)cc2)n1	-8.3%	-0.5%	-2.5%	-3.2%	-1.7%	15.6%	11.0%	-2.3%
O=C(Nc1ccccc1)c1ccc(CSc2ncccn2)cc1	-4.9%	-5.5%	1.9%	-19.6%	?	-3.4%	-13.4%	?
O=C(NCc1ccco1)c1ccc(NS(=O)(=O)c2cccc([N+](=O)[O-])c2)cc1	-7.8%	/	/	/	-12.9%[46.1 µM]	0.1%	-2.1%	0.7%[46.1 µM]
COc1ccc(/C=N/NC(=O)c2ccc(COc3ccccc3Cl)o2)cc1	-12.4%	?	-23.8%	3.1%	-26.8%	-2.7%	40.6%[activator]	-24.9%
Clc1ccc(CSc2ccc(-c3cccnc3)nn2)cc1	14.3%	/	/	/	28.6%[46.1 µM]	-9.2%	-13.9%	1.1%[46.1 µM]
CN(C)c1oc(-c2cccs2)nc1C#N	-0.7%	?	-18.8%	-3.2%	0.2%	3.1%	4.9%	-32.0%&-32.0%
Nc1c(C(=O)NCc2ccc(Cl)cc2Cl)nnn1Cc1ccc(Br)cc1	/	-17.2%	1.0%	/	-1.1%[46.1 µM]	/	-21.1%	23.1%[46.1 µM]
Fc1cccc(F)c1CSc1nc2ccccc2[nH]1	?	-4.2%	0.5%	-7.6%	?	-5.2%	-3.6%	?
O=C(c1ccccc1Br)N(Cc1ccccc1)c1ccccc1	16.2%	/	/	-17.0%	?	-32.8%	-29.9%	?
CCc1cccc(C)c1NC(=O)C1C2CCC(O2)C1C(=O)O (centres undefined)	12.3%	-2.8%	7.9%	2.0%	26.8%	1.7%	-0.4%	-17.6%
COc1cc(OC)c(NS(=O)(=O)c2cccc(C(=O)OCC(=O)NCC3CCCO3)c2)cc1Cl (centres undefined)	3.7%	/	/	/	-1.2%[46.1 µM]	-1.4%	14.5%	-0.8%[46.1 µM]
Cc1onc(-c2ccccc2)c1-c1nnc(CN2CCN(S(=O)(=O)c3ccccc3)CC2)o1	-15.7%	/	/	/	-21.1%	4.3%	?	-24.0%
O=[N+]([O-])c1cccc(/C=N/n2c(C3CCCCC3)n[nH]c2=S)c1	-5.7%	-5.8%	-5.9%	10.7%	-26.4%	0.7%	-18.3%	?
Cc1c(C(=O)NN)sc(=S)n1C	7.9%	/	/	16.9%	14.1%	-0.6%	-2.3%	?
CCc1nnc(NC(=O)C(NC(=O)c2ccccc2Cl)C(C)C)s1 (centres undefined)	9.3%	/	/	/	4.2%	5.4%	-17.9%	-0.6%[46.1 µM]
Cc1cc(C(=O)NCc2cccc(Cl)c2)c2ccccc2n1	0.5%	/	/	-11.2%	-2.9%[46.1 µM]	-1.7%	9.9%	?
COc1cccc(CN2CCCC(C(=O)N3CCCCC3)C2)c1 (centres undefined)	-5.5%	/	/	4.5%	/	1.3%	1.1%	/
Cc1ccc(C(=O)Nc2ccccc2C(=O)O)cc1S(=O)(=O)Nc1ccc(Br)cc1	0.0%	/	/	/	6.1%	/	112.1%[activator]	17.2%
N#CCCNc1c(Cl)cc(Cl)cc1C(=O)O	20.4%	8.4%	-0.6%	0.3%	-1.4%	15.9%	-11.4%	?
CC(=O)N1c2ccc(S(=O)(=O)N3c4ccccc4CC3C)cc2CC1C (centres undefined)	0.9%	/	/	-2.1%	/	0.9%	-22.1%	/
CCOc1ccc(CNC(=O)c2ccc3c(c2)nc2n3CCC(C)C2)cc1OC (centres undefined)	/	-5.1%	2.3%	/	15.5%[46.1 µM]	/	-5.3%	/
COc1ccc(/C=C(\NC(=O)c2ccc(OC)cc2)C(=O)NC(CCSC)C(=O)O)cc1 (centres undefined)	-7.8%	-3.3%	-1.1%	6.1%	9.0%	-4.3%	-7.1%	22.2%
CN1CCN(c2ccc(N)c(N3CCN(C)CC3)c2)CC1	-9.9%	-1.6%	1.4%	-3.1%	1.4%	19.2%	-10.4%	?
COc1ccc(C(=O)Nc2cc(S(=O)(=O)c3ccc(Cl)cc3)c(O)c(C)c2C)cc1	/	6.2%	-2.7%	/	15.8%[46.1 µM]	/	48.2%[activator]	9.9%[46.1 µM]
O=c1c2cccc3c2c(nn1-c1ccccc1)-c1ccccc1-3	-6.7%	-21.8%	4.2%	5.6%	-7.3%	7.7%	-16.1%	-25.1%
CN1CCN(Cc2ccc(-c3ccc(Cl)cc3)o2)CC1	2.5%	-1.6%	0.7%	0.5%	0.7%	-5.9%	15.9%	?
CN1OC(Cn2cc(C#N)c(=O)n(C)c2=O)CC1c1ccccc1 (centres undefined)	1.5%	/	/	/	12.7%[46.1 µM]	-1.6%	-14.0%	-12.6%[46.1 µM]
CC(C)CNC(=S)N1CCC(NC(=O)C23CC4CC(CC(C4)C2)C3)CC1	-5.7%	6.3%	-2.9%	7.8%	-5.5%	9.8%	-26.2%	-16.6%
CC(C)(C)OC(=O)Nc1ncnc2c1ncn2C1OC(CO)C2OC(C)(C)OC21 (centres undefined)	8.4%	/	/	-0.9%	/	-4.6%	-6.4%	/
NS(=O)(=O)c1ccc(Oc2ccc(S(N)(=O)=O)cc2)cc1	-6.5%	/	/	/	0.4%[46.1 µM]	-0.1%	-6.7%	-6.5%[46.1 µM]
O=S(=O)(c1ccc2ccccc2c1)N1CCC(c2nc(-c3ccncc3)no2)CC1	-10.9%	?	-2.4%	11.6%	-12.9%	0.2%	?	?
O=C(N/N=C/c1coc2ccccc2c1=O)c1cc2ccccc2o1	-14.4%	-2.7%	-8.4%	-8.6%	?	-18.4%	8.4%	-10.9%
COc1ncnc2c1ncn2CC1COC(C)(C)O1 (centres undefined)	7.1%	/	/	/	26.8%	/	17.3%	?
CC(=O)Nc1nonc1-c1nc2ccccc2n1CCC#N	-1.8%	1.2%	1.0%	4.1%	2.4%	-1.1%	/	6.7%
Cc1cc(C)cc(N(CC(=O)NCc2cccnc2)S(C)(=O)=O)c1	4.8%	-0.6%	2.4%	-0.6%	15.3%	4.7%	/	19.6%
NC(=O)NC(Cc1ccccc1)C(=O)Nc1ccc(S(N)(=O)=O)cc1 (centres undefined)	-4.9%	-1.2%	0.2%	3.7%	1.8%	1.2%	-3.8%	0.1%
CCNc1nc2[nH]c(=O)c3c(c2s1)OC(N)=C(C#N)C3c1ccc(C)cc1 (centres undefined)	8.4%	13.0%	-1.8%	14.9%	-6.7%	-4.8%	-10.0%	/
O=C1c2[nH]nc(-c3ccccc3O)c2C(c2ccccc2F)N1Cc1cccnc1 (centres undefined)	/	-5.9%	1.9%	/	?	/	-17.1%	2.4%[46.1 µM]
CC(C)c1ccc(NC(=O)C(NS(=O)(=O)c2ccc3c(c2)CCC(=O)N3)c2ccccc2)cc1 (centres undefined)	/	2.8%	0.1%	/	-1.6%[46.1 µM]	/	0.0%	-17.1%[46.1 µM]
CCN(CC#CCC(O)(c1ccccc1)C1CCCC1)C(C)C (centres undefined)	-15.3%	-3.4%	8.4%	12.1%	-9.1%	3.2%	-16.2%	?
COC(=O)CSc1nc(NC#N)nc(NC(C)C)n1	9.1%	-18.1%	3.5%	1.0%	9.6%	4.4%	-11.3%	17.9%
Cc1ccc(C(=O)N2CCC3(CC2)Oc2ccc(F)cc2C(=O)C32CC(c3ccc(Cl)cc3)=NO2)s1 (centres undefined)	8.2%	/	/	30.3%	/	4.3%	-21.5%	/
Cc1ccc(O)c(NC(=O)c2cc(-c3ccccc3O)no2)c1	/	?	-7.9%	/	?	/	44.0%[activator]	/
CCOc1ccc(-c2n[nH]c3c2C(c2ccccc2OC)N(c2ccc(Br)cc2)C3=O)cc1 (centres undefined)	/	-4.6%	-1.0%	/	2.7%[46.1 µM]	/	?	4.3%[46.1 µM]
Cc1ccc(S(=O)(=O)NC2(C(F)(F)F)NC(=O)N(c3ccc(F)cc3)C2=O)cc1 (centres undefined)	-0.2%	-9.0%	-0.6%	4.1%	20.9%&7.3%[46.1 µM]	0.7%	19.9%&7.4%	2.0%&1.1%[46.1 µM]
N#CC1=C(N)Oc2cc(N)ccc2C1c1ccsc1 (centres undefined)	33.3%	-7.0%	-1.9%	26.1%	16.6%	-4.8%	-17.2%	2.5%
O=C(COC(=O)C12CC3CC(CC(O)(C3)C1)C2)Nc1cccc(Br)c1	28.7%	/	/	/	12.2%	-0.8%	23.3%	3.4%
CC(C)OC(=O)c1nnc(Cc2ccc(F)cc2)o1	-8.3%	2.4%	2.4%	-7.7%	/	-10.2%	-1.3%	/
c1ccc(-c2cn(-c3ccccc3)c3ncnc(NCCCN4CCOCC4)c23)cc1	-7.0%	/	/	/	?	-1.9%	?	?

Assay outcomes (PubChem BioAssay)
